nsP2pro inh = inhibitors of chikungunya virus nsP2 protease; Q8JUX6; FRET peptide cleavage, nsP2pro, fluorescence 1 h; Potency, µM (top dose mostly 24.9 µM), without a hit: at the highest dose activity change, negative = inhibition, most hits filed as inhibitors; hit rate 1.1% among 31,000; active means well fitted inhibition curve with a large enough effect; inconclusive means small, poorly fitted or top-dose-only effect; inactive means no such curve, though single readings can be large or run the other way; further: nearly all actives have a fitted effect of over 60% in size; a reference inhibitor and vehicle were the controls
* hit, by the source's call; i = inactive; ? = inconclusive; & = joins results of further samples; [ ] = another dose, or the depositor's remark. On the % scale 0 is the no-effect control and ±100 the full control effect; potency means the concentration at half of the fitted maximal effect. A portion of the library (hit frequency here may not be typical).

SMILES | nsP2pro inh
CC(Oc1ccccc1)C(=O)Nc1ccc(C(=O)OCc2cc(=O)n3nc(C4CC4)sc3n2)cc1 (stereo not drawn) | -14%
CC(=O)N1CC2(CCN(C3CCCCC3)CC2)Cc2ccccc21 | -3%
CC1(C)CC[C@]2(C(=O)O)CC[C@]3(C)C(=CCC4[C@@]5(C)CC[C@H](O[C@@H]6O[C@H](C(=O)O)[C@@H](O)[C@H](O)[C@H]6O)C(C)(C)C5CC[C@]43C)C2C1 (stereo partly drawn) | 3%[10 µM]
CN(CCc1cn[nH]c1)C(=O)C1CCN(C(=O)C2CCC2)CC1 | 3%
O=C(Cc1ccccn1)N1CCN(C(=O)c2cccc(-c3ccccn3)c2)CC1 | -5%
COc1ccc(-c2nc(CN3CCC(C(=O)NCc4ccccc4)CC3)c(C)o2)cc1OC | -17%
O=C(COc1ccccc1CNc1ccc(Cl)cc1)Nc1ccc(F)cc1 | 40%[activator]
CCOC(=O)COc1ccc(C2C(C(=O)OC)=C(C)NC3=C2C(=O)c2ccccc23)cc1Cl (stereo not drawn) | 18%
O=C(O)/C=C/c1cnc[nH]1 | -23%
C[C@H](NC(=O)C(=O)Nc1ccccc1C(C)(C)C)C(=O)N[C@@H](CC(=O)O)C(=O)COc1c(F)c(F)cc(F)c1F | -22%[5.1 µM]
CCc1cccc(NC(=O)CN2Cc3ccccc3C2=O)c1 | -5%
COc1ccc(C(=O)N2CCCC3(CN[S+](=O)([O-])c4ccccc4N3)C2)cc1 (stereo not drawn) | -3%
COc1ccc(N2CCN(C(=O)c3cc4cc5ccc(Cl)cc5nc4o3)CC2)cc1 | -15%
Cc1nc2ccc(S(=O)(=O)N(CC(=O)Nc3ccc(F)cc3)Cc3ccccc3)cc2s1 | -10%
CCNC(=O)N1CCC(N2C(=O)C3(CCCC3)C2c2ccccc2)CC1 (stereo not drawn) | -3%
CSc1ccc(-c2cccc(C(=O)NCC(=O)N3CCCC3)c2)cc1 | i
CCN1CCN(C(=O)c2ccc3c(c2)N(Cc2ccc(Cl)cc2)C(=O)c2ccccc2S3(=O)=O)CC1 | 3%
Cc1cc(C)nc(NC(=S)N2CCN(c3cccc(S(C)(=O)=O)c3)CC2)c1 | -13%
CCc1cc(C(=O)NC(C)c2ccccc2)no1 (stereo not drawn) | -3%
CC1(C)[C@H](Cc2cc(COc3ccccc3)on2)C[C@@H]1NC(=O)C1CCC1 | -4%[39.2 µM]
Cc1cc(C)nc(NC(=S)N2CCN(c3ccccn3)CC2)c1 | -17%&-13%
O=C(NCc1cccnc1)C(=O)NCC(c1cccnc1)N1CCN(c2ccccc2F)CC1 (stereo not drawn) | -4%
CC(C)Cc1cc(C(=O)N2CCOC(C(F)(F)F)C2)n[nH]1 (stereo not drawn) | 2%
COCc1ccc(C(=O)N2CCCC(CCc3cccc(OC)c3)C2)o1 (stereo not drawn) | 4%
Cc1ccc(-n2nnc3c(sc4nc(C)c(C)cc43)c2=O)cc1Cl | -7%

Carrying on:
SMILES | nsP2pro inh
CC1(C(=O)NCc2cccnc2)CCCc2cnc(Nc3ccccc3F)nc21 (stereo not drawn) | i
O=c1c(=O)n(-c2cccc(Cl)c2)ccn1Cc1cccc(F)c1 | -8%
COc1ccc2cc3c(NC(=O)c4ccco4)nn(C)c3nc2c1 | 58%[activator]
CCSc1ncc(Cl)c(C(=O)Nc2cccc(Cl)c2)n1 | 23%
COc1cccc([C@@H]2CN(C(=O)c3oc(C)nc3C)C[C@H]2C(=O)O)c1OC | -5%
Clc1ccc(-c2nc3ncccn3c2Nc2ccc3c(c2)OCCO3)cc1 | -18%
Cc1cc(C)cc(OC(=O)c2cc(-c3ccc(Cl)cc3)on2)c1 | -14%
Cc1cc2c(s1)c1cnn(Cc3cc(F)c(F)c(F)c3)c(=O)c1n2C | -8%
CCOc1ccccc1CN1CCC(C)(c2noc(C3CCOCC3)n2)CC1 | 5%
Cc1nc(C(=O)N2CC[C@H](NC(=O)c3snnc3C)C[C@H]2C(=O)N[C@H](CC(C)C)C(N)=O)cs1 | -5%
O=C(NCc1cccs1)c1c[nH]c2ncccc12 | i
CCn1c2c(c(=O)n1Cc1ccccc1)CCN(C(=O)c1scnc1C)C2 | -7%[39.2 µM]
CC(C)(O)c1ccccc1CC[C@H](SCC1(CC(=O)O)CC1)c1cccc(/C=C/c2ccc3ccc(Cl)cc3n2)c1 | i
CC(Nc1nc(-c2ccccc2C(F)(F)F)nc2ccccc12)c1ccc(-c2ccccc2)cc1 (stereo not drawn) | -29%
CCc1nn(CCO)c(CC)c1Oc1cc(C#N)cc(C#N)c1 | 0%
O=C(CCCn1c(=O)[nH]c2ccsc2c1=O)N1CCN(c2cccc(C(F)(F)F)c2)CC1 | -13%
Cc1ccn2c(=O)cc(COc3ccc(NC(=O)c4ccccc4F)cc3)nc2c1 | -21%
Cc1cc(F)ccc1[C@H]1C[C@@H](N2CCN3C(=O)CC[C@H]3C2)CCN1C(=O)N(C)[C@H](C)c1cc(C(F)(F)F)cc(C(F)(F)F)c1 | -1%
Cc1nn2c(=O)cc(CN(C)c3ccccc3)nc2s1 | -29%
CC1(C)CC[C@]2(C(=O)O[C@@H]3O[C@H](CO)[C@@H](O)[C@H](O)[C@H]3O)CC[C@]3(C)C(=CCC4[C@@]5(C)CC[C@H](O[C@@H]6O[C@H](C(=O)O)[C@@H](O)[C@H](O)[C@H]6O)[C@@](C)(CO)C5CC[C@]43C)C2C1 (stereo partly drawn) | -4%[5.1 µM]
Cn1cc(CNCC2CCN(c3ncc(C(=O)NO)cn3)CC2)c2ccccc21 | 3%&7%
CC1CCCCN1Cc1nnc2cc(-c3nc(-c4ccccc4)no3)ccn12 (stereo not drawn) | i
CCCCOC(=O)c1ccc(NC(=O)c2sc3nc(C)cc(C)c3c2N)cc1 | -17%
c1nc(NCC2CCOC2)c2cc(-c3ccc4c(c3)OCO4)ccc2n1 (stereo not drawn) | 20%
O=C(CCn1ccn2nc3c(c2c1=O)CCCC3)N1CCSCC1 | 1%

Later entries.
SMILES | nsP2pro inh
N#Cc1cncc(N2CC3CCC(C2)N3CC(F)(F)F)c1 | ?
Cc1ccc2[nH]c(CN3CCC(c4cccc(C#N)c4)CC3)cc(=O)c2c1 | ?
Cc1cc2c(s1)c1cnn(Cc3c(F)ccc(F)c3F)c(=O)c1n2C | i
Cc1ccc(NC(=O)N2C[C@@H]3C[C@H](C2)c2c(-c4cccs4)ccc(=O)n2C3)cc1 | -2%[39.2 µM]
Cc1ccc(N2C(=O)c3n[nH]c(C)c3C2c2ccccc2Cl)cc1 (stereo not drawn) | -19%
Cc1ccc(N2CCN(C(=O)c3cn(C)c4ccc(S(=O)(=O)N5CCC(C)CC5)cc4c3=O)CC2C)cc1 (stereo not drawn) | -14%
CC(=O)N1CCC(C(=O)N[C@H]2CCN3C(=O)N(c4ccc(OC(F)(F)F)cc4)C(=O)[C@@H]3C2)CC1 | -4%
CC(=O)N1Cc2ccccc2NC(=O)C12CCNCC2 | ?
O=C(CCc1cnccn1)N1CCC(CCC(=O)N2CCC(Cc3ccccc3)CC2)CC1 | 4%
C=C1[C@@H]2[C@H]3OC(=O)C(=C)[C@@H]3CC[C@@](C)(O)[C@@H]2C[C@@H]1O[C@@H]1O[C@H](CO)[C@@H](O)[C@H](O)[C@H]1O | 0%[10 µM]
Cc1cc(Nc2cc(N)ncn2)c(=O)n2c1C(=O)NC21CCCCC1 | -22%
Cc1ccc(Nc2c3c(nc4nc(-c5cccs5)nn24)CCCC3)cc1F | -9%
CCCN(CCC)CCNC(=O)c1cc2c(-c3ccccc3F)nn(C)c2s1 | 11%
Nc1nc(N)c2c(OCC3CCN(Cc4ccccc4F)CC3)cccc2n1 | i
C[C@H](NC(c1cccc2[nH]c(=O)c(=O)[nH]c12)P(=O)(O)O)c1ccc(Br)cc1 (stereo partly drawn) | 12%
O=C1c2cncnc2OCC(CNC(=O)C2(c3ccccc3)CC2)N1Cc1ccccc1 (stereo not drawn) | -1%[39.2 µM]
O=C(Cn1ncc2c3ccccc3n(Cc3cccc(Cl)c3)c2c1=O)NCCC1=CCCCC1 | -12%
O=c1cc(-c2ccccc2)n2c(SCc3ccc(Cl)cc3)nnc2[nH]1 | 5%
O=C([C@H]1C[C@H](Oc2cccnc2)CN1C(=O)Nc1ccccc1)N1CCOCC1 | i
COc1ccc(CNC(=O)[C@@H]2CCC[C@@H](NCc3cccnc3)CN(C)C(=O)C2)cc1 | 2%[39.2 µM]
COc1cc(F)c(CN2CCC3(CCCNC3)C2)c(F)c1 (stereo not drawn) | 12%
Cc1ccc(C)c(N2CCN(C(c3ccccc3)c3nnc(-c4ccccc4F)o3)CC2)c1 (stereo not drawn) | ?
Cc1ccccc1-c1nnc(NC(=O)Nc2ccc3ccccc3c2)s1 | 0%
Cc1noc(C)c1-c1ccc2ncnc(NC(C)c3ccco3)c2c1 (stereo not drawn) | ?
OC[C@@H]1CNC[C@H]1c1nc(C2CC2)no1 | 0%

Another view of 4 compounds above:
> Cc1ccc(Nc2c3c(nc4nc(-c5cccs5)nn24)CCCC3)cc1F
- nsP2pro inh = -9%

> CCCN(CCC)CCNC(=O)c1cc2c(-c3ccccc3F)nn(C)c2s1
- nsP2pro inh = 11%

> Nc1nc(N)c2c(OCC3CCN(Cc4ccccc4F)CC3)cccc2n1
- nsP2pro inh = i

> Cc1ccc(N2CCN(C(=O)c3cn(C)c4ccc(S(=O)(=O)N5CCC(C)CC5)cc4c3=O)CC2C)cc1 (stereo not drawn)
- nsP2pro inh = -14%

The listing picks up; the 4 compounds before the break are reprinted first.
SMILES | nsP2pro inh
Cc1ccc(C)c(N2CCN(C(c3ccccc3)c3nnc(-c4ccccc4F)o3)CC2)c1 (stereo not drawn) | ?
Cc1ccccc1-c1nnc(NC(=O)Nc2ccc3ccccc3c2)s1 | 0%
Cc1noc(C)c1-c1ccc2ncnc(NC(C)c3ccco3)c2c1 (stereo not drawn) | ?
OC[C@@H]1CNC[C@H]1c1nc(C2CC2)no1 | 0%
CCOC(=O)c1cccc(NC(=O)CSc2nc3cc4ccccc4cc3[nH]2)c1 | -7%
COC(=O)c1nc(NC(=O)Cn2nc3c(cc2=O)CCCC3)sc1C(C)C | 1%
CCOC(=O)c1cnc(N2CC3CCC(C2)N3CC(F)(F)F)s1 | -9%
O=C1c2[nH]nc(-c3ccc(F)cc3)c2C(c2ccccc2F)N1c1ccccc1 (stereo not drawn) | -15%
CC(C)(C)OC(=O)N1CCN(c2ccc(NCc3ccc(-c4cccc([N+](=O)[O-])c4)o3)cc2)CC1 | 2%
CC(=O)Nc1ccc(/C=C/c2noc(-c3ccccc3O)n2)cc1 | -15%
c1ccc(-n2cc(-c3nnc4n3CCCCC4)cn2)cc1 | -24%
CCC(C)C(NC(=O)C(Cc1ccc(O)cc1)NC(=O)C(NC(=O)C(CCCN=C(N)N)NC(=O)C(N)CC(=O)O)C(C)C)C(=O)NC(Cc1cnc[nH]1)C(=O)N1CCCC1C(=O)O (stereo not drawn) | -6%
COC(=O)[C@@H](Cc1c[nH]c2ccccc12)NC(=O)[C@@H]1CN(C(=O)Nc2ccccc2)CCN1C(=O)NC(C)C | 1%
CCCc1cc(C(=O)N2CCC(=O)N(CC3CC3)C(C(C)C)C2)cs1 (stereo not drawn) | -3%
O=C(O)C(=O)CBr | -22%
O=C1NC2(CCCN(Cc3ccccc3C(F)(F)F)C2)COc2ccccc21 (stereo not drawn) | i
CCOc1ncccc1C(=O)N[C@H](c1cncc(OC)c1)C1CC(O)C1 (stereo partly drawn) | i
O=C1CN([S+](=O)([O-])c2ccc(F)cc2)CC(O)CN1Cc1cccs1 (stereo not drawn) | -10%
Cn1cccc1C(=O)N[C@H]1C[C@@H](C(=O)O)N(C(=O)CSCC(=O)N2C[C@@H](NC(=O)c3cccn3C)C[C@H]2C(=O)O)C1 | -1%
CC1(C)CC[C@]2(C(=O)O[C@@H]3O[C@H](CO)[C@@H](O)[C@H](O)[C@H]3O)CC[C@]3(C)C(=CCC4[C@@]5(C)CC[C@H](OC6OC(C(=O)O)C(OC7OC(CO)C(O)C(O)C7O)C(O)C6O)C(C)(C)C5CC[C@]43C)C2C1 (stereo partly drawn) | ?
C=C1CCC2C(C)(CO)C(O)CCC2(C)C1C/C=C1\C=COC1=O (stereo not drawn) | 6%
CCCCCCCCCCCC(=O)[O][Sn]([CH2]CCC)([CH2]CCC)[O]C(=O)CCCCCCCCCCC | -5%
O=C(C1CC=CC1)N1C[C@@H](COc2cccnc2)[C@H](c2ccccn2)C1 | i
CC(=O)N(C1CC1)C1CCOC2(CCN(C(=O)Cn3c(=O)oc4ccccc43)CC2)C1 (stereo not drawn) | i
Cc1ccc2c(c1)c1c(c(=O)n(-c3ccccc3C)c(=O)n1CC(=O)NCCC1=CCCCC1)n2C | -20%
CC(=O)NC1(C)CCN(Cc2cccc(-c3ccc4c(ccn4C)c3)c2)C1 (stereo not drawn) | 4%[39.2 µM]
CN1c2c(nc(N)[nH]c2=O)NC[C@@H]1CNc1ccc(C(=O)N[C@@H](CCC(=O)O)C(=O)O)cc1 | -5%[2.68 µM]

Among those listed so far, 3 have a cyano group.
SMILES | nsP2pro inh
CCc1nn(CCO)c(CC)c1Oc1cc(C#N)cc(C#N)c1 | 0%
N#Cc1cncc(N2CC3CCC(C2)N3CC(F)(F)F)c1 | ?
Cc1ccc2[nH]c(CN3CCC(c4cccc(C#N)c4)CC3)cc(=O)c2c1 | ?

High-throughput results (PubChem BioAssay)
